Source: PubChem (Broad Institute)
Tg IFNy HTS: inhibitors of Toxoplasma gondii growth with IFN-gamma. Toxoplasma gondii growth in IFN-gamma-treated host cells; hits give low values; reference of the scale not given here. activity change, negative = inhibition, %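 (about 20 µM by stock and volumes)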. 69,000 compounds, 3.8% hits. AID 1259416;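 active means below -70%; inconclusive means fit judged invalid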;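 further: host cells are HeLa cells infected with Toxoplasma gondii; parasite growth read as luciferase light; one replicate is shown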
An asterisk follows results filed as active; i = inactive; ? = inconclusive; & = joins results of further samples. A portion of the library, so the mix of outcomes need not match the whole.

molecule | Tg IFNy HTS
CN(CC(=O)Nc1ncc(-c2ccc(F)cc2)n1C)S(=O)(=O)c1ccc(F)cc1 | -31
CC(C)n1ccnc1CN1CCC(C(=O)N2CCOCC2)CC1 | 2
O=C(C1CCC1)N1CC2(C1)[C@H](c1ccccc1)[C@H](CO)N2Cc1nccs1 | -34
COc1cc(OC)nc(-c2cccc(NC(C)=O)c2)n1 | 12
CCCCN(C)C(=O)c1ncn2c(C3CCN(C(=O)C4CCCC4)CC3)ccnc12 | -1
CS(=O)(=O)N1C[C@H](OCc2cccnc2)[C@@H]2OCCC[C@@H]21 | -27
C[C@H](CO)N1C[C@H](C)[C@@H](CN(C)CC2CCCCC2)OCCCC[C@H](C)Oc2ccc(NS(C)(=O)=O)cc2C1=O | -32
COc1ccc(-c2nc(C)c(CCNS(=O)(=O)c3ccc(Br)cc3)s2)cc1OC | i
Clc1ccc(SCc2csc(-c3ccc(Cl)cc3)n2)cc1 | -5
COCCN1CCC2(CCCN(C(=O)c3ccncc3)CC2)C1=O (stereo unspecified) | i
COc1cc(OC)cc(C(=O)NCCc2sc(-c3ccc(Cl)cc3)nc2C)c1 | -16
O=C(NCCCN1CCOCC1)[C@@H]1[C@@H](CO)[C@@H]2Cn3c(ccc(C4=CCCCC4)c3=O)[C@H]1N2 | -9
COc1ccc(NC(=O)N2CCOCC2)cc1 | 33
O=C(c1ccc(O)cc1)N1C[C@@H]2CN(c3cnccn3)CC[C@H]2C1 | -5
c1nc(N2CCC3(CCCO3)CC2)c2[nH]cnc2n1 | 13
CCn1nc(C)c(NC(=O)CN2CCC(Oc3ncccn3)CC2)c1C | -10
O=C(c1cncc(-c2ccn[nH]2)n1)N1CCCCC1 | 0
CC(C)Cn1c(CN(C)Cc2ncc[nH]2)nc2ccccc21 | -84*
CC(C)(C)C(=O)NC1=NN(c2c(Cl)cc(Cl)cc2Cl)C(=O)C1 | -3
CN1CC2(CCCN(S(=O)(=O)c3cc(F)c(F)cc3F)CC2)OC1=O (stereo unspecified) | 24
CCCc1nc(C)cc(N2CCCC(O)(CO)CC2)n1 (stereo unspecified) | -31
Clc1ccccc1Cn1nc(-c2ccccc2)nc1-c1ccccc1 | 30
O=C(/C=C/c1ccccc1)NC(NC(=S)Nc1ccc(Cl)cc1)C(Cl)(Cl)Cl (stereo unspecified) | -78*
O=C(CN1CCC(c2cc(=O)n3c(n2)CCCCC3)CC1)N1CCC(c2ccncc2)CC1 | 4

Random excerpt: 7 entries already listed, in no set order.
molecule | Tg IFNy HTS
CCCc1nc(C)cc(N2CCCC(O)(CO)CC2)n1 (stereo unspecified) | -31
c1nc(N2CCC3(CCCO3)CC2)c2[nH]cnc2n1 | 13
CN(CC(=O)Nc1ncc(-c2ccc(F)cc2)n1C)S(=O)(=O)c1ccc(F)cc1 | -31
O=C(NCCCN1CCOCC1)[C@@H]1[C@@H](CO)[C@@H]2Cn3c(ccc(C4=CCCCC4)c3=O)[C@H]1N2 | -9
CN1CC2(CCCN(S(=O)(=O)c3cc(F)c(F)cc3F)CC2)OC1=O (stereo unspecified) | 24
CS(=O)(=O)N1C[C@H](OCc2cccnc2)[C@@H]2OCCC[C@@H]21 | -27
CCCCN(C)C(=O)c1ncn2c(C3CCN(C(=O)C4CCCC4)CC3)ccnc12 | -1

Continued.
molecule | Tg IFNy HTS
COc1cccc(C#Cc2ccc3c(c2)O[C@@H](CN(C)C(=O)CN2CCOCC2)[C@H](C)CN([C@H](C)CO)S3(=O)=O)c1 | -65
Cn1cnc(S(=O)(=O)N2CCCCN3[C@H](CO)[C@H](c4ccc(C5=CCCCC5)cc4)[C@@H]3C2)c1 | -46
CNC(=O)[C@H]1C[C@@H]2CN(Cc3nccs3)C[C@@H]2N1C | 14
COc1cc(Nc2nc(SCc3ccccc3F)nc3ccccc23)cc(OC)c1OC | -14
C=CC#CC(C)(C)c1ccc(O)c(C)c1 | -2
O=C(c1cc2n(n1)CCN(Cc1ccccc1)C2)N1CCCCC1CCO (stereo unspecified) | 0
Cc1cc(C)n(C2CCN(Cc3ccc(C#CC(C)(C)O)s3)C2)n1 (stereo unspecified) | 5
OC(CN1CCCC1)Cn1ccc(C(F)(F)F)n1 (stereo unspecified) | 67
CSCC[C@@H](CO)NC(=O)c1cc(NC(C)=O)ccc1Cl | -3
CC(C)(C)c1nc(SCc2nc(-c3cccc(-n4cccc4)c3)no2)n[nH]1 | -81*
C1=CC2(CCN(Cc3cc4n(n3)CCNC4)CC2)c2ccccc21 | 5
Cc1ccc(S(=O)(=O)N(C)c2cncc(C(=O)NC3CCCCC3)c2)cc1 | 3
O=C(c1csc2c1CCCC2)N1CCOc2ccc(CN3CCN(c4ccccn4)CC3)cc2C1 | 4
O=C(C[C@H]1CC[C@@H]2[C@H](COC[C@H](O)CN2C(=O)c2ccc(F)cc2)O1)N1CCCCC1 | 3
Cc1oc(-c2ccccc2Cl)nc1Cn1c(=O)cc(C(=O)N2CCCCC2)c2ccccc21 | -7
O=S(=O)(NC[C@H]1[C@@H](c2ccccc2)[C@@H](CO)N1CC1CC1)c1ccccc1 | -19
CCc1c(C)[nH]n2c(=O)cc(Cn3nc(OC)c4ccccc4c3=O)nc12 | 3
O=c1[nH]c2c(Cl)cccc2c(O)c1-c1nc(-c2ccc(F)cc2)no1 | -7
Cn1ccnc1CN1CCC2(CCC(=O)N2Cc2cccc(F)c2)CC1 | 11
CCOc1cc2ncc(C#N)c(Nc3ccc(F)c(Cl)c3)c2cc1NC(=O)/C=C/CN(C)C | -77*
COc1ccc(OCC(=O)N2CCC3(CC2)Nc2cc(C)ccc2-n2cccc23)cc1 | 31
CN(C)C(=O)c1cccc(-c2ccc(C3[C@@H]4CN(Cc5ccccc5F)C[C@H]3N4)cc2)c1 (stereo partly specified) | -6&-5
CC(=O)Nc1ccc(-c2nccn2CCn2cccn2)cc1 | 47
CCN(CC)CCCNC(=O)C1=C(C)C(=O)OC12CCN(Cc1ccccc1)CC2 | 152
CN1C(=O)c2cc(NC(=O)c3cnccn3)ccc2OC[C@H]2O[C@@H](CC(=O)N[C@@H]3CCN(Cc4ccccc4)C3)CC[C@@H]21 | 1
CN1CCN(c2cc(C(=O)Nc3cc4c(cc3Cl)NC(=O)CO4)ccn2)CC1 | 12
COc1ccc(OC)c(CNC(=O)c2nc(Nc3ccccc3)c3ccccc3n2)c1 | -47
COc1ccc(-c2cc(N)nc3[nH]ccc23)cn1 | -34
CN(C)CCO[C@@H]1CC[C@@H]2[C@H]1OCCN2S(C)(=O)=O | -4
COc1ccccc1-n1c(SCC(=O)O)nnc1C1CC(=O)N(C)C1 (stereo unspecified) | -1
O=C(NCCCN1CCCCC1)c1cn2c(n1)CSCC2 | 6
CCOc1ccc(CNC(=O)Cn2ncc3c(N4CCCCCC4)ncnc32)cc1OCC | 76
CN1c2ccc(Br)cc2[C@H]2[C@H](CCN2C(=O)C2CCC2)[C@H]1CO | -1
C1=CCC(c2nccn2CCc2ncc[nH]2)CC1 (stereo unspecified) | -9
CC(C)NC(=O)N1[C@@H](CO)[C@@H]2c3ccccc3N(C)C[C@@H]21 | -2
c1ccc(-c2nnc(N3CCN(c4ccccc4)CC3)nc2-c2ccccc2)cc1 | -13
CO[C@H]1CCN(CC2CCOCC2)[C@H]2CN(Cc3ccncc3)C[C@@H]12 | 4
COc1cccc(COC2CN(CCc3ccccc3)C(=O)CN(C(=O)c3csc(C)n3)C2)c1 (stereo unspecified) | -9
CCC1c2cccn2CCN1C(=O)c1cc2n(n1)CCCN(C(C)C)C2 (stereo unspecified) | 8
COC(=O)c1cccc(-c2nccn2CCc2ccco2)c1 | -6
O=C(c1ccccc1)N1CCC(NCCc2nc3ccccc3[nH]2)CC1 | -42
COc1ccc(CN(C)Cc2n[nH]c3c2CCCC3)cc1Cc1c(C)noc1C | -25
O=C(Nc1cccc(OCCN2CCOCC2)c1)c1csc2c1CCCC2 | 14
CCOC(=O)NC(=O)c1cn(Cc2ccco2)c(=O)n(Cc2ccccc2)c1=O | 45
Cc1ccccc1CC(=O)Nc1ccc2c(c1)CCC(=O)N2CC(C)C | -23
Cc1cnc(NC(C)CCN2CCOCC2)nc1N(C)C (stereo unspecified) | 4
COC(=O)[C@@H]1C[C@H](NC(=O)c2cnnn2-c2ccccc2)CN1C | 4
Cn1c(=O)n(C)c2cc(Cn3ccnc3-c3ccc(-n4ccnc4)cc3)ccc21 | 2
CC1Cc2ccccc2N1C(=O)c1ccc(S(=O)(=O)N(C)C)cc1 (stereo unspecified) | -10
CC(C)(C)c1[nH]ncc1CN1CCC(C(NC(=O)Cc2ccccc2)c2ccccn2)CC1 (stereo unspecified) | -49
Cc1ccc(CN2CCC3(CC2)Cc2ccccc2CN(C)C3=O)o1 | 0
CN1CCOCC12CCN(c1ccccc1F)CC2 | -23
CC(=O)CSc1nc2c(cc1C#N)CCCC2 | 373
C[C@H](CO)N1C[C@H](C)[C@@H](CN(C)C(=O)Nc2ccc(-c3ccccc3)cc2)OCc2ccccc2-c2ccccc2C1=O | -48
Cc1cccc(C2CCCN(C(=O)CCn3ccnc3C)C2)c1 (stereo unspecified) | -45
C=CCN(C)C(=O)c1coc(COc2ccc3ccc(OC)cc3c2)n1 | -51

Additional results follow.
molecule | Tg IFNy HTS
OCCC#Cc1ccc(CN2CCN(c3nc4ccccc4o3)CC2)cc1 | -4
CC(C)CCn1c(Sc2nc3ccccc3s2)nc2c1c(=O)[nH]c(=O)n2C | -1
CC1(C)CC(C(CC(=O)O)c2ccccc2)CCO1 (stereo unspecified) | -7
O=C(Cc1cccs1)Nc1ccccc1OCCn1cccn1 | -13
Cc1nnc(SCC(=O)O)[nH]c1=O | -49
C#CCN1C(=O)C(O)(c2c(C)[nH]c3ccccc23)c2ccccc21 (stereo unspecified) | 20
NC1CCCN(C(=O)c2[nH]cnc2-c2ccccc2)CC1 (stereo unspecified) | -21
Cc1ccc(Sc2nc(-c3cccs3)ns2)cc1 | 136
Cc1nc(-c2ccccc2)sc1-c1nnc(-c2ccc(C(F)(F)F)cc2)o1 | ?
CC(c1ccc(-c2ccc3c(c2)OCO3)cc1)N1CCOCC1 (stereo unspecified) | 90
CCCCS(=O)(=O)N1CCCn2nc(C(=O)N3CCOCC3)cc2C1 | 4
Cc1ccc(C(=O)N2CCOC3CC(COCc4ccccn4)CC32)o1 (stereo unspecified) | -57
COCCN1C(=O)CCc2cc(NC(=O)c3c(F)cccc3F)ccc21 | 13
COCCN1CCO[C@H]2CCN(C(=O)c3sccc3C)C[C@H]21 | -5
Cc1csc(-c2nccn2-c2ccc(-c3n[nH]c(C)n3)cc2)n1 | 9
Cc1noc(C)c1NC(=O)Nc1ccc2c(c1)C(=O)N([C@@H](C)CO)C[C@H](C)[C@@H](CN(C)Cc1ccc3c(c1)OCO3)OCCCC[C@@H](C)O2 | 98
C[C@@H]1CN([C@H](C)CO)C(=O)c2ccccc2-c2ccccc2CO[C@H]1CN(C)S(=O)(=O)c1ccc([N+](=O)[O-])cc1 | -29
CCN1CCC2(CC1)OC(=O)C(C)=C2C(=O)NCCCN(C)C1CCCCC1 | 10
Cc1cc(N2CCCC2c2nc(C)cc(C)n2)ncn1 (stereo unspecified) | -6
O=C(O)CCN(CCC(=O)O)c1nncs1 | 13
CCOC(=O)NC(NC(C)c1ccccc1)(C(F)(F)F)C(F)(F)F (stereo unspecified) | 42
C/C=C/c1ccc([C@@H]2[C@@H](CO)N(C(C)=O)[C@@H]2CNC(=O)c2ccccc2)cc1 | 16
CCc1nc2ccccc2c(C(=O)NC2CCCCC2)c1C | -5
C#CCN(Cc1ccc(C)cc1)C(=O)CC(=O)Nc1ccc(C)cc1 | 1
O=C(Nn1cnnc1)c1cc(Cl)cc(Cl)c1 | -34
NCC1CCN(Cc2cc(F)ccc2O)C1 (stereo unspecified) | 102
CC(=O)Nc1ccc(CN(Cc2ccncc2)C2CC(C)(C)NC(C)(C)C2)cc1 | 9
CCN1CCC[C@H]1CNc1nc(-c2ccccn2)nc2c1CCN(C(C)=O)C2 | -14
COCC#Cc1ccc([C@H]2[C@@H](CO)N3C(=O)CN(C(=O)C4CCCCC4)C[C@@H]23)cc1 | -14
CCN(Cc1noc(C)n1)C(=O)Cc1c(C)nn(-c2ccccc2)c1C | 5
CCCS(=O)(=O)N1CCOCC2(CCC(Cn3cncn3)O2)C1 (stereo unspecified) | 2
N=c1scc(-c2ccccc2)n1-c1cc(C(F)(F)F)ccc1N1CCOCC1 | -29
CCN(CC)c1ncnc2c1CCN(c1ccc(C)nn1)CC2 | 49
CC1(C)[C@H]2CC=C(CCNCc3nc(-c4ccco4)no3)[C@@H]1C2 | 21
CN1CCN(C(=O)C[C@@H]2CC[C@@H]3[C@H](COC[C@@H](O)CN3CC3CCCCC3)O2)CC1 | -9
NC(=O)c1ccccc1-c1ccc(F)cc1Cl | -1
Nc1nc(-c2cc3cc(Cl)ccc3o2)cs1 | 61
Cc1ccc2c(n1)N(CC1CC1)CCN(C(=O)c1ccoc1)C2 | 46
COCCN1CCO[C@@H]2CN(C(=O)CC3Cc4ccccc4C3)C[C@@H]2C1 | 3
COc1ccc(CNC(=O)Cn2ncc3c(N4CCN(C)CC4)ncnc32)cc1 | 0
Cc1oc(-c2ccccc2)nc1CC(=O)N1CCC2(CN(C)C(=O)O2)C1 (stereo unspecified) | 76
FC(F)(F)c1ccnc(NCCNC(=S)Nc2cccnc2)n1 | -23
CNC(=O)c1cc2c(nc1NC(C)C)CCN(C(=O)Nc1ccccc1)CC2 | 10
COc1cccc(NC(=O)c2nc(Nc3ccc(Cl)cc3)c3ccccc3n2)c1 | -56
O=C(Cn1ncc2c(N3CCCC3)ncnc21)Nc1cccc(Br)c1 | -31
CCn1c(SCc2nc(-c3ccc(Cl)cc3)no2)nnc1-c1ccco1 | 4
CC(Cn1cnc2ccccc2c1=O)NCc1nc2ccc(Cl)cc2[nH]1 (stereo unspecified) | -31
